# Assay outcomes from PubChem.
# Menin MLL FP FL – qHTS Assay for Inhibitors Targeting the Menin-MLL Interaction in MLL Related Leukemias: Competition With Fluorescein Labeled MLL-derived Peptide | Fluorescence polarization, fluorescein-MLL peptide displacement from menin | FP activity change, % at 61.4 µM | 290,000 tested, under 10 active | AID 1766, 2009; inconclusive = falling polarisation curve, or a change in total fluorescence; inactive = total fluorescence flat and polarisation flat or rising; no compound was filed as active; the % refers to the polarisation; negative = inhibition;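 note: % of control where 0% means no effect; inhibitors lower the polarisation; unlabelled MLL peptide was the positive control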
# gsp antag – qHTS for Antagonists of gsp, the Etiologic Mutation Responsible for Fibrous Dysplasia/McCune-Albright Syndrome: qHTS; AID 624288, 2012; Potency, µM (highest dose often 76.9 µM), for the others: at the highest dose activity change, negative = inhibition, actives largely listed as inhibitors; 340,000 tested, 0.4% active; gsp-mutant cells, cAMP HTRF, 30 min; control for the full effect not named in the record; active = falling curve of any shape with a large fitted effect; inconclusive = falling curve, mostly with a smaller effect; inactive = flat or rising curve; cell line not stated here;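 note: intracellular cAMP measured with PDE inhibitor Ro 20-1724 present during compound exposure; potency is the fitted concentration of half-maximal effect; % is set by controls: 0 for no effect and ±100 for the full control effect; nearly all actives have a fitted effect of over 65% in size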
#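 HTRF cAMP measurement after 30 min RT detection following 30 min, 37C compound treatment alongside […] (added as 300 uM solution) in G418-selected cells seeded at 2000/well and grown 16–24 h.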
# gsp agonist – qHTS for Agonist of gsp, the Etiologic Mutation Responsible for Fibrous Dysplasia/McCune-Albright Syndrome: qHTS; gsp mutant cells, cAMP HTRF, 30 min; control for the full effect not named in the record; Potency, µM (doses to about 76.9 µM), for the others: top-dose activation (cAMP increase), most hits filed as activators; 340,000 tested, 0.13% active; AID 624287, 2012; active = well fitted activation curve with a large enough effect; inconclusive = small, poorly fitted or top-dose-only effect, or another doubt; inactive = no such curve, though single readings can be large or run the other way; cell line not stated here;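 note: phosphodiesterase inhibitor Ro 20-1724 added with compounds to block cAMP breakdown; potency is the fitted concentration of half-maximal effect; nearly all actives have a fitted effect of over 60% in size; about a fifth of the inactives were tested at one dose only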
#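 Cells stably selected in G418 were plated at 2000/well, grown 16-24 hr, then given compounds in DMSO with the PDE inhibitor […] (300 uM solution added) for 30 min at 37C; cAMP was read by HTRF.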
# TRPML1 inh – qHTS for Inhibitors of the Human Mucolipin Transient Receptor Potential 1 (TRPML1); Mucolipin-1 (Homo sapiens), Q9GZU1; TRPML1-inducible cells, Ca2+ dye fluorescence, FDSS; stronger effect = lower value; inhibition of EC80 agonist-evoked calcium signal; activity change, negative = inhibition, % (concentration not given with the values); 390,000 tested, 0.02% active; in the data active means activity change below about -50%; inconclusive means about -30% to -50%; inactive means above about -30%;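 note: stimulus is agonist 54-4 at its EC80 concentration; % is set by controls: 0 for no effect and ±100 for the full control effect; compound concentration not given in the record; the text of the record puts the active cut at -80%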
#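 Tet-induced TRPML1-DL cells loaded with Ca8 no-wash calcium dye were read kinetically on FDSS. Compound addition was followed by EC80 agonist 54-4 (4 uM final); inhibition was read over 110 s.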
# TRPV1 PAM – HTS Assay for Compounds that Act as Potentiators of the Vanilloid Receptor 1 | 320,000 tested, 0.02% active | potentiation, % at 8.33 µM | TRPV1-expressing cells, Fluo-8 calcium influx, capsaicin EC20 potentiation; host cell line not named in the record; control for the full effect not named in the record | Transient receptor potential cation channel subfamily V member 1 (Homo sapiens), Q8NER1 | AID 540277, 2011; active means potentiation above 80%; inconclusive means 30% to 80%; inactive means below 30%; note: 0% is about no effect
# Target sequence (Q8NER1 whole entry, looked up): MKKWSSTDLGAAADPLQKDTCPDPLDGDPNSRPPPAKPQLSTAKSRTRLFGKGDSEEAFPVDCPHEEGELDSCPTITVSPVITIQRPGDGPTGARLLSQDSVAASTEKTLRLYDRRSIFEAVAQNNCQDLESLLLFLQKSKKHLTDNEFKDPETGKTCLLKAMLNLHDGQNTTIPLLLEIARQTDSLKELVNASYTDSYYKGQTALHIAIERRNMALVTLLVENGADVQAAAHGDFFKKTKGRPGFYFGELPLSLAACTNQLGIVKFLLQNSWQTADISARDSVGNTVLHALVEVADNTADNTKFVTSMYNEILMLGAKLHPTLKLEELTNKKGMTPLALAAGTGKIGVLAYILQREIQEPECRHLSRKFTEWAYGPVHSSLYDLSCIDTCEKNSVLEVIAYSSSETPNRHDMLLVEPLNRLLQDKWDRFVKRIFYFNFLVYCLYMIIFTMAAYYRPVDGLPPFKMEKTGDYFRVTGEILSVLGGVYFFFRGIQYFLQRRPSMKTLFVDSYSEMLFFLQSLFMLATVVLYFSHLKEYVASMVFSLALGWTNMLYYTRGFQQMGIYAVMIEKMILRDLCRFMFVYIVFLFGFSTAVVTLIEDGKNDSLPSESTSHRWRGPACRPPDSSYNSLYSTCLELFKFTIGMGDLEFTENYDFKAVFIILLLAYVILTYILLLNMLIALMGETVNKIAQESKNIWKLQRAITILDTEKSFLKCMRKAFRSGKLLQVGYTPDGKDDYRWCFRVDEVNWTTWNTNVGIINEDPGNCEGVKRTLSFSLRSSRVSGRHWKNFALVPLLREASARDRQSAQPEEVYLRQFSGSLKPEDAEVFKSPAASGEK
#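 Cells expressing TRPV1 were dye-loaded with Fluo-8 and read kinetically: 10 s baseline, 3 min after compound (agonist portion), then 2 min after EC20 capsaicin (allosteric enhancer portion). Calcium-bound dye fluorescence at 480/520 nm.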
# ClpP mod – qHTS Assay for Activators of ClpP. ATP-dependent Clp protease proteolytic subunit (Bacillus subtilis (strain 168)), P80244. purified B. subtilis ClpP, FRET peptide cleavage, 20 min. Potency, µM (series often up to 57.5 µM), without a hit: top-dose activity change, negative = active. 340,000 tested, 1.9% active. AID 651965, 2013; active = well fitted falling curve with a large enough effect; inconclusive = small, poorly fitted or top-dose-only effect; inactive = no such curve, though single readings can be large or run the other way; note: potency is the fitted concentration of half-maximal effect; the source files actives as falling curves though it sought activators and does not explain the sign; nearly all actives have a fitted effect of over 65% in size; many hits overshoot -100%
# Target sequence (P80244 whole entry, looked up): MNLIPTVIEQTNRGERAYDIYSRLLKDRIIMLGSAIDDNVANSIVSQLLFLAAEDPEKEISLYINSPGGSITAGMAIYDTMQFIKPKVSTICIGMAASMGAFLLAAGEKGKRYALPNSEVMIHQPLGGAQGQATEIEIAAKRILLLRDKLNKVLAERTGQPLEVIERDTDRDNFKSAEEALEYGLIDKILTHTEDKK
#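 FRET quenching reversal measured ClpP activation: 10 microg/mL B. subtilis ClpP at pH 8 with the FRET-FV decapeptide, read at 430 nm after 320 nm excitation. The 20-min minus 0-min signal was scaled between DMSO/no-enzyme wells and ADEP (5.8 microM final).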
# Sfp PPTase inh – qHTS Assay for Inhibitors of Bacillus subtilis Sfp phosphopantetheinyl transferase (PPTase) | Biochemical Sfp PPTase activity, qHTS | Potency, µM, for the others: max response, negative = inhibition, usual class: inhibitors | 310,000 tested, 3.5% active | AID 1490, 2009 | 4'-phosphopantetheinyl transferase ffp (Bacillus subtilis), Q9F4F7; active = well fitted inhibition curve with a large enough effect; inconclusive = small, poorly fitted or top-dose-only effect, or another doubt; inactive = no such curve, though single readings can be large or run the other way;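 note: the enzyme is Sfp with the accession as filed and its product quenches rhodamine fluorescence; potency is the fitted concentration of half-maximal effect; 0% = enzyme reaction without inhibitor and -100% = no enzyme wells; top concentration of the series not given in the record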
#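 Compounds were incubated with enzyme (final 15 nM) for 15 min at room temperature before substrate addition started the reaction. Fluorescence at 525 nm excitation, 598 nm emission was recorded immediately and after 30 minutes.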
# Numbers without * were called inactive; ? = inconclusive; / = not tested or not shown; & = joins results of further samples; [ ] = remark or other dose.
# Second line of a record: Menin MLL FP FL	gsp antag	gsp agonist	TRPML1 inh	TRPV1 PAM	ClpP mod	Sfp PPTase inh
- Cc1nc(N2CCOCC2)[nH]c(=O)c1C
→ -2.2	3%	?	13	-8	/	-5%
- CCC(C)NC(=O)C(=O)NCc1ccncc1 (centres undefined)
→ 3.1	7%	-2%	-9	-2	-0.4%	3%
- COc1ccc(C(=O)COC(=O)c2cnc(C)cn2)c(OC)c1
→ /	-3%	29%[15.4 µM]	42	11	/	/
- O=C(COC(=O)CN1C(=O)NC2(CCCC2)C1=O)Nc1ccc(C(F)(F)F)cc1[N+](=O)[O-]
→ /	-2%	9%[15.4 µM]	2	-12	/	/
- COc1ccccc1N1CCN(C(=O)CN(C)S(=O)(=O)c2ccc(C)cc2)CC1
→ /	/	-10%	0	/	-4.1%	/
- NC(=O)CSc1nnnn1-c1cccc(Cl)c1
→ 1.5	7%	-4%	7	1	-2.5%	12%
- COc1ccc(C2=NN(C(=O)c3ccco3)C(c3cccs3)C2)cc1OC (centres undefined)
→ /	/	-53%[inhibitor]	-6	/	-3.0%	/
- COc1ccc(C(=O)OCC(=O)c2ccc(CNC(C)=O)s2)cc1
→ /	-2%	9%	16	-1	-2.2%	/
- CCOc1ccc(N(C(C)C(=O)N2CCCCCC2)S(C)(=O)=O)cc1 (centres undefined)
→ -2.2	-4%	26%	/	0	1.3%	4%
- CC1CCCCN1C(=O)CSc1nc(N)nc(N)n1 (centres undefined)
→ /	2%	-29%	-10	7	-2.5%	/
- CN1C(=O)/C(=C2\SC(N3CCCCCC3)=NC2=O)c2ccccc21
→ 1.7	-16%	-32%[inhibitor]	19	-4	-3.4%	-12%
- CC1(c2ccc(Cl)cc2)NC(=O)N(CC(=O)NCc2ccc(F)cc2)C1=O (centres undefined)
→ 4.2	5%	5%[15.4 µM]	-10	1	-1.5%	6%
- CCOc1ccc(C(=O)NCC(c2cccs2)N(C)C)cc1OCC (centres undefined)
→ 2.4	1%	-4%	3	?	-1.7%	1%
- COc1cc(C2C3=C(CCCC3=O)Nc3c2c(C)nn3-c2cccc(C)c2)cc(OC)c1O (centres undefined)
→ 4.9	2%	-15%[15.4 µM]	-7	0	/	?
- CCn1cnc2c1c(=O)n(CC(=O)NCC(F)(F)F)c(=O)n2Cc1ccccc1
→ 0.3	5%	12%	1	2	/	4%
- Cc1cccc(N2CCN(C(=O)c3nn(C)c4c3CS(=O)(=O)c3ccccc3-4)CC2C)c1 (centres undefined)
→ -0.6	35µM*	9%	2&35	-1	-2.7%&0.6%	12%
- CSc1nc(Oc2ccc(F)cc2)c2ccccc2n1
→ 0.3	4%	?	25	-9	-18%	-5%
- CCCCNC(=O)CSc1nnc(-c2c[nH]c3ccccc23)n1CC1CCCO1 (centres undefined)
→ 1.1	1%	16%	0	4	-0.6%	16%
- COc1cccc(-n2c(C)nc3c(cnn3-c3ccc(Cl)cc3)c2=O)c1
→ 3.4	-7%	-38%[inhibitor]	67	7	1.2%	5%
- Cc1cc(=O)n2nc(N3CCCC(C(=O)NC(C)c4ccccc4)C3)sc2n1 (centres undefined)
→ -1.0	-2%	-2%	-1	0	-0.7%	11%
- O=C(Oc1cc(=O)oc2ccccc12)c1cccnc1Cl
→ 5.8	15%	-1%	-11	-15	/	-12%
- CCN(CC)S(=O)(=O)c1ccc2oc(C(=O)N3CCCCCC3)c(C)c2c1
→ 3.3	-28%	4%	0	-6	-0.9%	-11%
- Cc1ccc2c(c1)C(=O)C(=O)N2CCOc1ccccc1
→ 0.7	24%	29%[15.4 µM]	-14	-1	/	-5%
- O=C(CN1CCN(Cc2ccccc2)CC1)Nc1nc2ccccc2s1
→ 2.2	-3%	0%	12	5	0.0%	4%
- Cc1cccc(NC(=O)[C@@H]2CCCN2C(=O)OC(C)(C)C)c1C
→ 7.4	9%	2%	-25	0	/	4%
- CCOc1ccccc1Nc1nnc(SCC(=O)NC(Cc2c[nH]c3ccccc23)C(=O)O)s1 (centres undefined)
→ 4.0	/	-10%[15.4 µM]	5	4	/	8%
- CC(=O)c1ccc(-c2ccc(-c3cc(=O)oc4c(C(C)C)ccc(C)c34)cc2)cc1
→ 18	-9%	/	-1	/	-5.1%	-7%
- COc1ccc(S(=O)(=O)N2CCCC2C(=O)Nc2nccs2)cc1 (centres undefined)
→ 3.0	11%	0%	-13	21	?	-9%
- CC(C)OCCCn1c(=N)c(C(N)=S)cc2c(=O)n3ccccc3nc21
→ ?	0%	12%	-6	-4	14µM*	?
- COc1ccccc1C(=O)COC(=O)c1cc(S(=O)(=O)N2CCCCC2)ccc1N1CCOCC1
→ /	7%	-6%	22	6	?	/
- COc1cc(SC)ccc1C(=O)Nc1cc(C)c(OCC(=O)N2CCOCC2)c(C)c1
→ /	-30%	-54%[inhibitor]	-18	0	-2.6%	-4%
- S=c1[nH]nc(-c2cccnc2)n1C1CCCCC1
→ 6.3	6%	15%	4	15	-1.9%	-19%
- O=C(CC(C(=O)O)c1cccc(Cl)c1)c1ccccc1 (centres undefined)
→ -5.5	-17%	3%	-3	3	0.3%	14%
- Cc1ccc(C(=O)COC(=O)CN2C(=O)C3C4CCC(C4)C3C2=O)cc1C (centres undefined)
→ 9.8	2%	-15%	-6	0	0.3%	6%
- O=C(Nc1ccc([N+](=O)[O-])cc1)c1ccccc1
→ -2.2	3%	-38%[inhibitor]	9	-5	/	11%
- COc1ccc(C2N(Cc3ccccc3)CC(=O)N2/N=C(\C)c2ccccc2)cc1 (centres undefined)
→ 5.3	-14%	-9%	-20	-7	16µM*	28%
- CN(C)CCCCOc1ccccc1-c1ccccc1
→ 3.4	-13%	-43%[inhibitor]	-4	-7	-4.1%	-27%
- CC(C)c1ccc(NC(=O)C2CCCN2S(=O)(=O)c2ccccc2F)cc1 (centres undefined)
→ /	-7%	2%	1	-42	-1.8%	/
- COc1ccccc1NS(=O)(=O)c1ccc2oc(=S)[nH]c2c1
→ 0.9	-6%	3%[15.4 µM]	21	4	/	4%
- Cc1ccc(S(=O)(=O)N2CCN(C(=O)CC(C)n3cncn3)CC2)cc1 (centres undefined)
→ -4.5	-10%	-8%[15.4 µM]	4	16	-0.2%	23%
- COc1ccc(-c2nc3ccccn3c2/N=C/c2ccc(OC)c(OC)c2)cc1O
→ 3.3	?	45%	11	0	?	-14%
- COc1ccc(OC)c(C(C)NC(C)=O)c1 (centres undefined)
→ 0.6	12%	0%	-12	0	-1.5%	10%
- CCCC(c1nnnn1C(C)(C)CC)N(CCCO)Cc1cc2cc(C)cc(C)c2[nH]c1=O (centres undefined)
→ 2.5	7%	-44%[inhibitor]	28	2	-16%	?
- CCN(CC)c1ccc(C(=O)NNC(=O)CCc2nc3ccccc3c(=O)[nH]2)cc1
→ /	-9%	-14%	0	0	-3.2%	18%
- COc1ccc(CN2CCN(CCCc3ccccc3)CC2)c(OC)c1
→ -4.4	/	/	/	-1	/	-23%
- CN(C(=O)c1ccc(NC(=O)Cc2ccc(NC(=O)C3CCCN(S(=O)(=O)c4cccc([N+](=O)[O-])c4)C3)cc2)cc1)C1CCCC1 (centres undefined)
→ /	-6%	/	-12	/	-3.0%	/
- OC(COCc1ccccc1)COCc1ccccc1
→ /	-11%	-16%[15.4 µM]	-12	/	-2.2%	/
- COc1ccc(S(=O)(=O)N(C)[C@H]2C[C@H]3c4cc(N5CCN(C)CC5)ccc4CCN3C(=O)[C@H]2[C@H](C)O)cc1
→ /	/	-6%	-4	/	-1.1%	/
- O=C(NC1CCCC1)c1cccc(S(=O)(=O)N2CCCC2)c1
→ /	-5%	18%	-2	-1	-0.7%	/
- CC(C)(C)C(=O)NC(C(N)=O)=C(Cl)Cl
→ -0.7	13%	-11%	-2	1	0.9%	5%
- c1cncc(-c2nc3ccccc3s2)c1
→ 0.8	-2%	-2%	/	-5	-23%	-5%
- Cc1cc(=O)oc2c(N)c(O)ccc12
→ -0.7	-26%	8%	10	9	-5.9%	?
- COC(=O)Cn1c(C)nc2ccccc21
→ 0.9	7%	11%	1	-3	-1.6%	-2%
- O=C(NCc1ccccc1)c1ccc(S(=O)(=O)N2CCCC2)cc1
→ 3.9	10%	4%	-8	2	-1.2%	7%
- O=c1c2c3c(sc2n(CCN2CCCCC2)c(=O)n1Cc1ccco1)CCCCC3
→ -1.0	7%	-32%[inhibitor]	56	1	-3.5%	-2%
- CCCCC(C(=O)O)C(C)CC(=O)Nc1ccn(-c2ccccc2)n1 (centres undefined)
→ -3.1	-2%	4%	-1	?	-1.8%	20%
- Cn1c(CC(=O)Nc2ccccc2)nnc1SCC(=O)Nc1ccc(N2CCOCC2)cc1
→ -3.1	8%	-32%[inhibitor]	0	4	/	-6%
- CSc1cccc(NS(=O)(=O)c2ccc3c(c2)NC(=O)C(C)C(=O)N3)c1 (centres undefined)
→ 1.2	13%	-41%[inhibitor]	-6	20	-2.6%	9%
- COc1ccc2nc(C)cc(Nc3ccc(C(=O)O)cc3)c2c1
→ 8.6	13%	16%	-15	-4	-11%	-6%
- Cc1ccc(S(=O)(=O)N2[C@@H](c3ccc4c(c3)OCO4)C(C(=O)O)=C[C@H]2CC2CCCC2)cc1
→ /	-16%	/	4	/	-3.4%	/
- O=C(COC(=O)CN1C(=O)c2ccccc2C1=O)Nc1ccccc1
→ /	-18%	3%	18	/	1.0%	/
- COCc1c(C(=O)NCCOc2ccc(Cl)cc2)oc2ccccc12
→ /	-23%	-108%[inhibitor]	9	4	0.2%	/
- N#C/C(=C\Nc1ccc2c(c1)OCCO2)c1nc2ccccc2[nH]1
→ 12	-12%	11%	-9	-4	1.7%	-17%
